miR-21 FLuc – miR-21 reporter, rising signal. HeLa miR-21 FLuc reporter, luciferase, 48 h. Potency, µM (highest dose often 38.3 µM), for inactives: top-dose reporter change, positive = more light. 340,000 tested, under 10 active. AID 2288; active = well fitted rising curve with a large enough effect; inconclusive = small, poorly fitted or top-dose-only effect; inactive = no such curve, though single readings can be large or run the other way;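 note: % of control where 0% means no effect; miR-21 action dims this reporter so a rising signal means less miR-21 action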
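Using DMEM plus 10% FBS, HeLa miR-21-FLuc cells are incubated with test compounds (final up to about 40uM) for 48 hours; firefly luciferase signal is then imaged following reagent-mediated lysis.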
Rango dissoc inh – inhibitors of RanGTP-induced Rango-importin beta complex dissociation. O95149+P62826. Biochemical FRET Rango-importin beta, RanGTP-induced dissociation. Potency, µM (titrated, usually from 46.1 µM), without a hit: at the top dose activity change, negative = inhibition. 340,000 tested, 0.071% active. AID 540253; active means falling FRET ratio curve, often poorly fitted, with flat reads before Ran was added; inconclusive means other falling curves, or compound fluorescence or quenching; inactive means flat or rising ratio curve;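 note: potency is the fitted concentration of half-maximal effect; % of control where 0% means no effect; nearly all actives have a fitted effect of over 45% in size; -100% = wells without RanGTP and RCC1; the record marks most hits as doubtful in a second field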
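FRET read at 45 min, room temperature: inhibitors block the CFP/YFP signal rise when RanGTP (0.6 uM Ran, 2 mM GTP, 0.2 uM RCC1) frees Rango (0.1 uM) from importin beta (0.25 uM). Pre-read after 5 min compound exposure flags interference.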
Rango-impB inh – prevents formation of the Rango-importin beta complex. Q14974. Rango CFP/YFP FRET sensor + importin beta, 45 min. Potency, µM (series often up to 92.2 µM), for the others: top-dose inhibition of complex formation. 340,000 tested, 0.031% active; active = rising FRET ratio curve, often small or poorly fitted; inconclusive = mostly compound fluorescence or quenching in the first reads; inactive = flat curves in all reads;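 note: potency is the fitted concentration of half-maximal effect; 0% = DMSO wells and 100% = buffer wells lacking importin beta; nearly all actives have a fitted effect of over 15% in size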
Target sequence (Q14974 whole entry, looked up): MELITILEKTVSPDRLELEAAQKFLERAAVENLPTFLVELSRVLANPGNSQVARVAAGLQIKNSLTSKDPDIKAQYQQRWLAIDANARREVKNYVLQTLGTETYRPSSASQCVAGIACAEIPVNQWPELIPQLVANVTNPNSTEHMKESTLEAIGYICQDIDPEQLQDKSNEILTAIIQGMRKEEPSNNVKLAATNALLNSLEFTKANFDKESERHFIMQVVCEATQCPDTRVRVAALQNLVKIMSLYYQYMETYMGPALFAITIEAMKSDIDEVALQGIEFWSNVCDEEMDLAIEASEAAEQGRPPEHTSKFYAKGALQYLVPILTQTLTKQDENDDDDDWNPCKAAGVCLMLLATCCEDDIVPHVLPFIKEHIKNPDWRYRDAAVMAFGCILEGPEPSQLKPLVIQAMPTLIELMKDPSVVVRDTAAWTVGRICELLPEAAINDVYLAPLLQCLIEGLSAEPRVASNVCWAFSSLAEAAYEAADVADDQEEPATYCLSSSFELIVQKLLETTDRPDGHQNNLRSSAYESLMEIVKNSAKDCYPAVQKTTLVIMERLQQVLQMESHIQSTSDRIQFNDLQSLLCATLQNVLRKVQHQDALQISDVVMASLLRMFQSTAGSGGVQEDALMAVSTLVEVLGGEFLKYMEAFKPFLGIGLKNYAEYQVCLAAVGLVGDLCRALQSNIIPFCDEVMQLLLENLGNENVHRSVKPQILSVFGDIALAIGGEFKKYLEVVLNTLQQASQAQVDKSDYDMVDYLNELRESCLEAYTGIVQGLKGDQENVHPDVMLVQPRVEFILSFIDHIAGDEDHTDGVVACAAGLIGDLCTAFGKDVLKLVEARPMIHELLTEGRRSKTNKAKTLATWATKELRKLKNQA
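FRET biosensor Rango (snurportin 1 IBB between N-terminal EYFP and C-terminal Cerulean), 50 nM in PBS/1 mM DTT/0.02% Tween-20/0.1% BSA, preincubated 5 min RT with compound; 0.125 microM importin beta added, 45 min RT, CFP/YFP FRET ratio read.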
GLA inh pH 4.5 – inhibitors of human alpha-galactosidase A at pH 4.5. P06280. purified enzyme, 4-MU-alpha-Gal fluorescence, pH 4.5. activity change, negative = inhibition, % at 105 µM. 230,000 tested, under 10 active. AID 1467; inconclusive = small, poorly fitted or top-dose-only inhibition, or a rising curve; inactive = flat fitted curve, though single readings scatter; no compound was filed as active;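 note: 0% = full activity with enzyme and -100% = basal without enzyme; dose as in the result columns while the protocol names 77 µM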
Starred values were filed as active, the others as inactive; ? = inconclusive; · = no result given. A portion of the library; count on the stated rates, not on these rows.

miR-21 FLuc | Rango dissoc inh | Rango-impB inh | GLA inh pH 4.5 | SMILES
22% | 3% | 4.4% | 7 | C=CCCCCCCCCc1nc(=S)[nH][nH]1
0% | 19% | ? | 8 | O=C(O)C1C2C=CC(C2)C1C(=O)NCc1ccco1 (centres undefined)
-6% | ? | ? | · | COc1ccc(OC)c(CN2CCN(Cc3cc(=O)oc4cc(O)ccc34)CC2)c1
-5% | 7% | 2.7% | · | CCN(CC)C(=O)Cn1cc(C(=O)C(=O)NCc2ccccn2)c2ccccc21
· | -16% | -0.1% | · | O=C(COC(=O)c1cc(S(=O)(=O)N2CCCC2)ccc1O)Nc1ccccc1Br
· | -11% | -0.1% | · | C[C@H](CO)N1C[C@H](C)[C@@H](CN(C)C(=O)Nc2ccc3c(c2)OCO3)Oc2c(NS(=O)(=O)c3cn(C)cn3)cccc2C1=O
10% | ? | ? | -6 | N#CC1=C(N)C(C#N)(C#N)[C@H](c2ccoc2)[C@H]2CN(Cc3ccccc3)CC=C12
-2% | 0% | 3.6% | -9 | Cc1cc(NS(=O)(=O)c2ccc(NC(NC(=O)C(C(F)(F)F)C(F)(F)F)(C(F)(F)F)C(F)(F)F)cc2)no1
2% | -10% | 3.0% | 4 | Cc1nnc2ccc(-c3ccc(NC(=O)c4cccnc4Cl)cc3)nn12
4% | -10% | -1.9% | · | Cc1ccc(Cl)cc1NC(=O)CSc1sc2c(O)cc(=O)[nH]c2c1C#N
-36% | -6% | -3.9% | -6 | O=C(Cn1cnc2ccccc2c1=O)c1ccc2c(c1)OCCO2
2% | 7% | 2.3% | -25 | CCOC(=O)c1c(C)c(-c2ccccc2)n(CC(=O)N2CCCC2)c1C

Overlap with the part before: 3 entries; new compounds follow.
miR-21 FLuc | Rango dissoc inh | Rango-impB inh | GLA inh pH 4.5 | SMILES
4% | -10% | -1.9% | · | Cc1ccc(Cl)cc1NC(=O)CSc1sc2c(O)cc(=O)[nH]c2c1C#N
-36% | -6% | -3.9% | -6 | O=C(Cn1cnc2ccccc2c1=O)c1ccc2c(c1)OCCO2
2% | 7% | 2.3% | -25 | CCOC(=O)c1c(C)c(-c2ccccc2)n(CC(=O)N2CCCC2)c1C
-27% | 16% | -0.1% | · | Cc1cc(-c2nc3ccccc3c(=O)o2)ccc1[N+](=O)[O-]
6% | 2% | 0.8% | · | CC(=O)Nc1nnc(SCC(=O)N2C(C)CCCC2C)s1 (centres undefined)
· | -10% | 0.8% | · | COc1ccc(C(CNC(=O)CNS(=O)(=O)c2ccc(NC(C)=O)cc2)N2CCOCC2)cc1 (centres undefined)
0% | ? | 4.0% | · | O=C(O)Cn1cccc1C(=O)c1ccccc1
1% | 13% | 3.5% | 2 | Cc1ccccc1NC(=S)NC12CN3CN(CN(C3)C1)C2
1% | -2% | -0.7% | -20 | CCOP(=O)(OCC)/C(=N/OC(=O)c1ccccc1C)C(N)=O
-4% | -1% | -1.7% | · | CC(=O)c1ccc(OC(=O)/C=C/c2ccccc2)cc1
· | 14% | 0.4% | · | CC(OC(=O)c1nc(Cl)ccc1Cl)C(=O)c1ccccc1 (centres undefined)
-25% | -16% | -0.8% | 5 | C=CCOc1ccc(/C(O)=C2\C(=O)C(=O)N(CCN(C)C)C2c2cccs2)cc1 (centres undefined)
· | -6% | -3.2% | · | O=C(COC(=O)c1nc(Cl)ccc1Cl)Nc1ccc2[nH]c(=O)[nH]c2c1
· | 0% | -1.8% | · | CC(NC(=O)COC(=O)CNC(=O)c1ccccc1Cl)C1CC2CCC1C2 (centres undefined)
1% | -16% | ? | · | CCN1CCN(C(=O)C2CCN(c3nnc(C)c4c(C)n(-c5ccc(C)cc5)nc34)CC2)CC1

Further records:
miR-21 FLuc | Rango dissoc inh | Rango-impB inh | GLA inh pH 4.5 | SMILES
-8% | 9% | 2.7% | 1 | N#CC1=C2SCN(Cc3ccccc3)CN2C(=O)CC1c1ccccc1F (centres undefined)
-2% | -7% | 0.0% | 5 | CCCn1c(=O)c2c(c3ccccc31)OC(C)C(=O)N2 (centres undefined)
-1% | 10% | 2.4% | -16 | O=S(=O)(c1ccc(NC(=S)NCc2ccco2)cc1)N1CCCCC1
-6% | -21% | -0.6% | 8 | Cc1cc(C)cc(N(CC(=O)Nc2ccccc2C(=O)N2CCOCC2)S(C)(=O)=O)c1
-1% | -11% | 4.1% | 0 | O=C(CCN1CCCCC1)Nc1ccccc1
-3% | -2% | 0.7% | 1 | CCN(CC(=O)N1CCCCCC1)S(=O)(=O)c1ccc(Cl)cc1
-28% | -10% | 2.1% | 9 | N#C/C(=C\c1ccc(N2CCCC2)c([N+](=O)[O-])c1)c1nc2ccccc2[nH]1
-6% | -6% | -2.9% | 3 | Cc1c(N=Cc2ccccn2)c(=O)n(-c2ccccc2)n1C
-19% | 55% | 2.0% | · | COc1ccc(C2(CNC(=O)c3ccc(N)cc3)CCCC2)cc1
-10% | -5% | 5.4% | · | CCN(CC)C(=O)Cn1nc(-c2ccc(Cl)cc2)c2ccccc2c1=O
-2% | 1% | -3.4% | 4 | COc1cccc(C(=O)NC(C)c2ccc(Br)cc2)c1 (centres undefined)
2% | 11% | 9.9% | -3 | CCOc1ccc(CCNc2nc3c(c(=O)n(C)c(=O)n3C)n2CC)cc1OCC

(cont.)
miR-21 FLuc | Rango dissoc inh | Rango-impB inh | GLA inh pH 4.5 | SMILES
-14% | -4% | -1.1% | -2 | O=[N+]([O-])c1ccc(-c2nnc(CNC3CCCC3)o2)cc1
22% | ? | ? | -19 | COc1cc(C2C(C#N)=C(N)N(Nc3ccccc3)C3=C2C(=O)CC(C)(C)C3)ccc1OCc1ccccc1 (centres undefined)
· | -3% | -1.6% | · | Cc1ccc2ccc3cccc4ccc1c2c34
-1% | 4% | 6.7% | 2 | CS(=O)(=O)N(CC(=O)NCc1ccncc1)c1ccc(F)c(Cl)c1
-13% | -5% | -2.4% | -18 | Cc1cc(-c2sccc2C)nc(-n2cccc2)n1
· | -6% | 6.2% | · | COCCN(C(=O)CSc1nc(-c2ccccc2)cn1N)c1c(N)n(Cc2ccccc2)c(=O)[nH]c1=O
-48% | ? | ? | -5 | O=C1N=C(N2CCCCC2)S/C1=C/C1=Cc2ccccc2OC1
-52% | -12% | 0.1% | · | COC(=O)c1sccc1NC(=O)Nc1ccc(C)c(C)c1
-2% | -9% | -0.2% | · | COc1ccc(OC)c(NC(=O)NNC(=O)COc2ccc(F)cc2F)c1
2% | -5% | 0.3% | · | COc1ccc(Cc2nnc(NC(=O)CS(=O)(=O)c3ccc(C)cc3)s2)cc1OC
-15% | 0% | 3.5% | -1 | COc1ccccc1NC(=S)NNC(=O)c1nn(C)cc1Cl
· | 1% | -5.2% | · | CCOC(=O)N1CCN(C(=O)CSc2nc3nc(C)cc(C)n3n2)CC1

Reprinted from the part before: three entries, followed by the next part.
miR-21 FLuc | Rango dissoc inh | Rango-impB inh | GLA inh pH 4.5 | SMILES
2% | -5% | 0.3% | · | COc1ccc(Cc2nnc(NC(=O)CS(=O)(=O)c3ccc(C)cc3)s2)cc1OC
-15% | 0% | 3.5% | -1 | COc1ccccc1NC(=S)NNC(=O)c1nn(C)cc1Cl
· | 1% | -5.2% | · | CCOC(=O)N1CCN(C(=O)CSc2nc3nc(C)cc(C)n3n2)CC1
0% | -2% | -0.7% | · | CSCCC(NC(=O)c1ccccc1)C(=O)NCc1ccc(S(N)(=O)=O)cc1 (centres undefined)
-4% | -14% | -4.2% | · | COc1ccc(S(=O)(=O)Nc2ccc(C)cn2)cc1
6% | -3% | 11% | · | CC(C)c1ccc(NC2CCCN(C(=O)CC3CCCC3)C2)cc1 (centres undefined)
-13% | 5% | -5.0% | -4 | Cc1cc(Cl)ccc1C(=O)C1CCCN(C(=O)c2n[nH]c3c2CCCC3)C1 (centres undefined)
9% | 1% | -3.7% | · | CN(C(=O)c1ccccc1F)C(c1ccccc1)c1ccccc1
-67% | -6% | -1.5% | · | C=CCOc1cccc(/C=C/c2nc3ccccc3c(=O)[nH]2)c1
-27% | 1% | -4.5% | -14 | Cc1ccc(C(=O)Oc2cccc(NC(=O)c3ccccc3)c2)cc1C
· | ? | ? | · | CCc1ccc(N2CC(C(=O)OCc3nc4ccsc4c(=O)[nH]3)CC2=O)cc1 (centres undefined)
-8% | 4% | 2.2% | · | COc1ccc(C2NC(=O)C(=O)/C2=C(\O)c2ccc(Cl)cc2)cc1OC (centres undefined)
-10% | 8% | 5.8% | · | O=C(CN1CCc2ccccc2C1)Nc1ccccc1C(F)(F)F
-6% | -25% | 1.3% | 12 | Cc1ccc(N2CC(C(=O)Nc3cccc(F)c3)CC2=O)cc1 (centres undefined)
? | 6% | 0.2% | -6 | O=C(Nc1ccccc1Oc1ccccc1)c1cc([N+](=O)[O-])ccc1Cl

Following part
miR-21 FLuc | Rango dissoc inh | Rango-impB inh | GLA inh pH 4.5 | SMILES
0% | 2% | 2.4% | -7 | N#C/C(C(N)=O)=C1/SC(Cc2ccc(F)cc2)C(=O)N1c1ccccc1 (centres undefined)
· | -11% | -1.1% | · | O=C1CCCC/C=C\C[C@H](CC(=O)N(CCO)Cc2ccccc2)C(=O)N[C@@H](Cc2ccccc2)CO1
0% | 1% | 0.5% | 7 | CCCOP(=O)(OCCC)C(Nc1ccc(C(=O)O)cc1)c1ccccc1 (centres undefined)
· | 11% | -3.0% | · | COc1ccc(CC(=O)OCC(=O)Nc2ccc(OC(F)F)cc2)cc1OC
-6% | 9% | -1.7% | -17 | CCC(=O)Nc1ccc(-c2csc(NNC(C)=O)n2)cc1
-7% | 4% | -2.1% | 1 | Cc1cc(C(=O)NNC(=O)c2ccc(C(F)(F)F)cc2)no1
0% | 3% | -6.6% | -7 | COC(=O)COc1ccc(S(=O)(=O)NCCC2=CCCCC2)cc1Cl
· | 26% | 5.1% | · | O=C(COC(=O)c1cccnc1Cl)NCc1ccc(F)cc1
-26% | 12% | -2.2% | 3 | Cc1cccc(NC(=S)NC(=O)c2ccco2)n1
· | 0% | -1.3% | · | NC(=O)c1ccc(NC(=O)c2ccc(COc3ccccc3Br)cc2)cc1
2% | 19% | -2.9% | 0 | COc1cccc(NC(=O)Cc2nnc(SCC(=O)c3ccccc3)n2C)c1
-4% | 6% | -0.3% | · | COc1ccc(NC(=S)NCCc2c[nH]c3ccccc23)cc1

(continued)
miR-21 FLuc | Rango dissoc inh | Rango-impB inh | GLA inh pH 4.5 | SMILES
8% | 1% | -0.3% | 5 | CC(=O)Nc1cc(C(=O)O)ccc1S(=O)(=O)c1ccc(Cl)cc1
? | 9% | 0.5% | -13 | FC(F)(F)c1cnc(NNC(=S)Nc2ccccc2Cl)c(Cl)c1
-16% | -10% | -0.5% | · | CC1Cc2cc(/C(O)=C3/C(=O)C(=O)N(CCCn4ccnc4)C3c3ccc(F)cc3)ccc2O1 (centres undefined)
1% | 2% | -0.6% | · | CCOc1ccc(S(=O)(=O)Nc2ccc(C(=O)N3CCCC3)cc2)cc1C(N)=O
-6% | 29% | 0.0% | -19 | CCc1ccc(OCC(=O)N2CCN(c3ccccc3F)CC2)cc1
-36% | -6% | 7.5% | 4 | COc1ccc(-c2n[nH]c(=S)n2-c2ccc3c(c2)OCCO3)cc1
-38% | -12% | -3.7% | -1 | O=C(CSC1CCCCC1)Nc1ccccc1Br
-8% | -1% | -0.2% | 4 | CN1CCN(S(=O)(=O)c2ccc3[nH]cc(C(=O)O)c(=O)c3c2)CC1
-12% | 0% | 0.8% | · | COc1ccc(-n2ncc3c2CC(C)(C)CC3NC(=O)CCc2c(C)noc2C)cc1 (centres undefined)
-3% | 3% | 0.9% | · | CC(=O)Cn1c(CN2CCN(C(=O)c3ccco3)CC2)nc2c1c(=O)n(C)c(=O)n2C
· | -12% | ? | · | CN1CCN(S(=O)(=O)c2cccc(C(=O)Nc3ccccc3N3CCCCC3)c2)CC1
-2% | -2% | 0.6% | -6 | COc1ccc2cc(CN(Cc3ccco3)C(=S)NCC3CCCO3)c(=O)[nH]c2c1 (centres undefined)
1% | -4% | -1.3% | -2 | Cc1cccc(Sc2c(C=O)c3ccccc3n2C)c1
· | 12% | 2.3% | · | COc1ccc(C(=O)OCC(=O)N(C)C2CCS(=O)(=O)C2)cc1S(=O)(=O)N(C)Cc1ccccc1 (centres undefined)

Compound activity from PubChem BioAssay.
